Vif TR-FRET – HIV-1 Vif–A3G interaction blockers – biochemical, TR-FRET, GST-Vif 1-94, biotin-A3G peptide, dose response retest, primary screen (AID 1117319). TR-FRET GST-Vif / biotin-A3G peptide binding; higher % means a stronger effect; test concentration not given here; strong numbers were not always called active. inhibition, %, or IC50 in µM where a hit was titrated. hit rate 0.57% among 260,000;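 active = above the screen mean plus three standard deviations and confirmed in dose response; inconclusive = results disagree or hit not tested in dose response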;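 note: Vif residues 1-94 fused to GST binding biotinylated APOBEC3G peptide 110-148; 0% = full assay without inhibitor and 100% = GST in place of GST-Vif; retest series ran down from 100 µM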
A1 inh – inhibitors of the anti-apoptotic protein A1, read as caspase activation | MEF A1-2A-BIM cells, Caspase-Glo 3/7 luminescence, 3 h; percent of clofoctol response, vehicle zero | caspase activation, % (concentration not given with the values) | hit rate 0.066% among 330,000 | AID 2462;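 active = over half of replicate activation scores above 10%, or exactly half above 10 with the replicate mean above 10; inconclusive = replicate mean below 10 yet half the replicates above 10; inactive = over half of replicates below 10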;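 note: wells of about 30 µL received 50 nL stock; many hits fall short of the cut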
Beta cell apopt – blocks beta cell apoptosis; INS-1E cytokine-induced death, ATP luminescence, 48 h; percent of positive-control rescue, neutral wells zero; protection from apoptosis, % (no concentration beside the values); hit rate 0.8% among 300,000;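 active = all replicates at 75% or more, or half of them and the mean; inconclusive = half reach 75% but not the mean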;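 note: 0% = cytokine-treated negative control wells and 100% = positive control rescue; higher means more ATP so stronger rescue from cytokine killing; wells of about 40 µL received 100 nL stock; the first replicate is given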
RanGTP-Imp inh – disruptors of Ran-importin-beta complex formation – biochemical, FRET, CFP-Ran, YFP-importin-beta, homogeneous, primary screen; cell-free CFP-Ran/YFP-importin-beta FRET ratio; inhibition, % (test concentration not listed); hit rate 1.1% among 300,000; AID 2216;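 active = most replicates above 15%; inconclusive = exactly half above 15%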;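 note: 0% = DMSO wells and 100% = Ran loaded with GDP instead of GTP; wells of about 40 µL received 100 nL stock; the first replicate is given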
AF4-AF9 inh – MLL-AF4/AF9 protein interaction inhibition. P42568. AlphaScreen, biotin-AF4 peptide binding to FLAG-AF9. inhibition, % at 10 µM. hit rate 0.47% among 350,000. AID 651704;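 active = every replicate reaching a set inhibition limit, whatever the replicate mean, cut at about 25% in these data; inconclusive = mean inhibition reaches that limit but some replicates miss it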;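 note: 0% = plate neutral control median and 100% = total signal loss; the record names both 10 and 1 µM as test concentration; the first replicate is given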
Calb FLC – affects C. albicans growth with fluconazole; C. albicans CaCi-2 (fluconazole-resistant clinical isolate) + fluconazole, Alamar Blue growth, 48 h; growth inhibition, % (concentration not given with the values); hit rate 0.57% among 300,000; AID 1979;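 active = most replicates above 75%; inconclusive = exactly half above 75%; inactive = most below 75%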;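 note: all wells also contain fluconazole at 8 µg/ml as a sub-toxic cotreatment; 0% = median of DMSO wells and 100% = median of geldanamycin control wells; wells of about 8 µL received 7.5 nL stock; the first replicate is given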
LANA-H2A inh – blocks KSHV LANA binding to histone H2A/H2B; Q9QR71; cell-free LANA-H2A/H2B peptide, fluorescence polarization; inhibition, % (no concentration beside the values); hit rate 0.6% among 320,000; in the data active = inhibition mostly above about 10%, no sharp cut-off; inactive = mostly below about 6.7%;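 note: stock transfer was 7.5 nL into about 10 µL; 0% = median of vehicle wells and 100% = median of positive control wells; one replicate is shown; the record names a cut of 25% in any replicate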
Target sequence (Q9QR71 whole entry, looked up): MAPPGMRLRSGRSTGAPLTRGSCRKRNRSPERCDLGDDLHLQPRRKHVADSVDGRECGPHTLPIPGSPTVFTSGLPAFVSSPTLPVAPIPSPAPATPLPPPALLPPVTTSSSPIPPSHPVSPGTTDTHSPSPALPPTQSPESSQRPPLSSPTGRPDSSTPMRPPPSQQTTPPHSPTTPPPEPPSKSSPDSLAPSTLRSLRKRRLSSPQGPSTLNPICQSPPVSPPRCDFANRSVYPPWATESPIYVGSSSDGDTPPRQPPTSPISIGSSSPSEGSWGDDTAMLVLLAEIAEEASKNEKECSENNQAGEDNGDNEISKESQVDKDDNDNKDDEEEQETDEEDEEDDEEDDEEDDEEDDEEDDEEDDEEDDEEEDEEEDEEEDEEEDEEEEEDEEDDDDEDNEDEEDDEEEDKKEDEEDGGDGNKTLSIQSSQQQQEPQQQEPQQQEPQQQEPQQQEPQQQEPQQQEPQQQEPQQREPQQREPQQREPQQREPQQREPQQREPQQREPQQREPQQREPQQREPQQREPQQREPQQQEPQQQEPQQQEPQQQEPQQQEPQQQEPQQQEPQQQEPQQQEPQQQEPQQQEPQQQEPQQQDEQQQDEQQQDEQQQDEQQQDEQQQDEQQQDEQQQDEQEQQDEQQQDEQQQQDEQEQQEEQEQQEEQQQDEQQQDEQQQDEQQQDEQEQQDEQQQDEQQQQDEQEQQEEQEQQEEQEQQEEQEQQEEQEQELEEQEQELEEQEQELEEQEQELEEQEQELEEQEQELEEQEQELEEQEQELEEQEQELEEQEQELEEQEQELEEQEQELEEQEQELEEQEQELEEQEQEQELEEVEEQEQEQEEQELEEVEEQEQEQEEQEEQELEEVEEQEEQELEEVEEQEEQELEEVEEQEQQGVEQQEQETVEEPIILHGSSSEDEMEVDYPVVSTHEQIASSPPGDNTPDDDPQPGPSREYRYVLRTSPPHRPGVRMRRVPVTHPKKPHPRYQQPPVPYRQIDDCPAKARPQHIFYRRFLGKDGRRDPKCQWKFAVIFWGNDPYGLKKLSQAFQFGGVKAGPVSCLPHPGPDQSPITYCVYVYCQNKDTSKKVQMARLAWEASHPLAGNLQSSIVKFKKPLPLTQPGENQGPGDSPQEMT
T cruzi inh – blocks replication of Trypanosoma cruzi; inhibition, % (no concentration beside the values); T. cruzi beta-gal in NIH3T3, luminescence, 90 h; hit rate 1.4% among 300,000;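 active = mean inhibition across valid replicates above about 55%, limit read from the data; inconclusive = mean below that limit but half or more replicates reach it; inactive = mean below it, under half of replicates reach it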;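 note: signal also drops with host cell toxicity which is not excluded here; 0% = plate median of DMSO wells and 100% = zero luminescence signal; higher percent means less beta-gal luminescence so fewer parasites; stock transfer was 50 nL into about 50 µL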
Numbers without * were called inactive; ? = inconclusive; . = no result given.

SMILES	Vif TR-FRET	A1 inh	Beta cell apopt	RanGTP-Imp inh	AF4-AF9 inh	Calb FLC	LANA-H2A inh	T cruzi inh
CCCCC(CC)Cn1c(N)c(C#N)c2nc3ccccc3nc21 (stereo not given)	-6.9%	-0.2	-8.3	49.3*	2.3	-17.0	10.4	43.1
O=S(=O)(NC1CC1)c1ccc(Cl)cc1F	.	0.7	-2.5	1.6	3.6	-5.3	3.3	-8.1
Cn1c(NC(=O)c2ccc(Cl)s2)cc(=O)n(C)c1=O	9.8%	-0.1	-3.2	5.4	.	10.5	3.1	-23.0
CC1CCC/C(=C(\C#N)c2nc(-c3cc4ccccc4oc3=O)cs2)C1 (stereo not given)	15.5%	-0.1	-0.1	-0.6	.	-2.9	-1.9	10.4
CCOC(=O)N1CCC(Nc2ncnc3c2cnn3-c2ccc(C)cc2C)CC1	-2.0%	-0.5	5.8	-0.6	-1.6	28.6	-6.0	-7.9
C=CCC(NCc1ccccc1)c1ccco1 (stereo not given)	16.9%	-0.7	0.9	3.7	-0.7	-18.2	0.3	-4.2
COc1ccc(N2C(=NC(=O)CCCc3ccccc3)SC3CS(=O)(=O)CC32)cc1 (stereo not given)	.	0.3	-7.1	3.4	1.6	0.9	5.2	7.6
Nn1c(SCC(=O)NCCN2C(=O)CSC2=O)nnc1-c1ccc(OC(F)F)cc1	7.9%	0.1	1.6	-5.2	-6.7	3.4	-4.7	-5.5
NNC(=O)c1cc(O)c(O)c(O)c1	.	0.2	-8.3	0.1	-7.3	95.2*	-4.1	17.6
CC(=O)NCCCc1nc2ccccc2n1Cc1c(F)cccc1Cl	20.5%	1.0	3.7	5.6	1.3	3.7	4.0	-0.1
Cc1ccc(C(=O)Oc2ccc(/C=C3\C(=N)N4N=C(N5CCOCC5)SC4=NC3=O)cc2)cc1	.	.	-6.2	-5.9	?	6.2	-3.7	-12.6
COc1ccc(C(=O)C2CCCN(S(=O)(=O)c3ccccc3F)C2)c(C)c1 (stereo not given)	.	-0.1	-7.5	1.3	-4.4	?	-2.2	3.3
COc1cccc(COC(=O)C2CCN(S(=O)(=O)c3ccc(C)cc3)CC2)c1OC	-4.0%	-0.6	-4.6	.	-2.2	1.2	3.0	-5.3
CC(C)(C)c1cnnn1-c1ccc([N+](=O)[O-])cc1	2.0%	0.1	-4.1	-1.7	2.6	4.2	1.6	-5.7
COc1ccc2c(c1)O/C(=C\c1ccccc1O)C2=O	.	-0.8	0.3	1.8	-0.1	-2.8	2.8	5.5
CC(NC(=O)c1ccc(-c2cc(C(F)(F)F)ccc2Cl)o1)c1ccccc1 (stereo not given)	-5.8%	-0.5	0.1	-9.5	.	-14.4	-1.7	1.0
O=C(CCc1nnc(CCCCc2ccccc2)o1)NCc1cccc(F)c1	-7.8%	-0.7	-13.5	2.1	-1.7	-11.8	-3.4	-15.1
Cn1cnc([N+](=O)[O-])c1Sc1ccccc1	1.1%	1.9	-11.1	-3.9	.	-15.1	6.1	2.2
Cc1cc(C(=O)Nc2ccc3ccccc3c2)c(C)o1	.	-7.4	12.6	1.5	-0.9	-24.9	0.6	3.2
Cc1cccc(C(=O)NCCc2n[nH]c(=S)n2C)c1	-0.8%	-0.3	-3.0	-0.4	.	-1.3	4.7	-8.9
O=C(NCCc1cccnc1)C1CCC(=O)N(CCc2cccc(F)c2)C1 (stereo not given)	.	-0.8	-1.9	-5.7	-1.6	4.7	-0.8	-1.9
Cc1ccc(NC(=O)C2CCN(S(=O)(=O)c3ccc4c(c3)OCCCO4)CC2)nc1	3.3%	0.9	4.7	-2.0	-3.0	2.4	2.0	1.5
N#C/C(=C\c1ccccc1)C(=O)N1CCC(C(N)=O)CC1	.	-0.2	-1.7	2.7	-6.2	-8.3	11.9	-9.9
CC(CCc1ccc(O)cc1)NC(c1ccccc1)c1ccc(Cl)cc1 (stereo not given)	-6.6%	2.0	0.7	?	3.8	18.1	-6.9	21.3
Cc1cc(C)cc(-n2cc[nH]c2=S)c1	-5.4%	0.2	-8.4	-0.7	.	-25.3	0.1	-5.6
CCOC(=O)CC1(CC(=O)OCC)NC(=O)c2c(C)sc(C(=O)OCC)c2N1	-5.2%	0.4	0.4	1.5	.	-6.5	3.4	-14.4
O=C(COC(=O)CCc1nc2ccccc2c(=O)[nH]1)Nc1ccc(N2CCOCC2)cc1	-2.2%	-0.6	-3.7	-7.0	-2.4	8.6	-2.9	3.0
COC(C/C=C\[C@H](O)COCc1ccccc1)OC	.	0.3	-8.4	0.9	-2.0	-0.8	-0.8	0.0
COc1cccc(CNC(=O)COC(=O)CN2C(=O)NC3(CCCCC3C)C2=O)c1 (stereo not given)	-5.3%	0.7	2.4	.	1.5	.	3.1	.
CCCCNC(=O)c1nn2cc(Br)cnc2c1Br	.	0.0	-0.8	2.1	-0.7	28.3	-1.4	0.2
Cc1ccc(/C=N/N=C2/NC(=O)C(CC(=O)Nc3ccccc3)S2)o1 (stereo not given)	6.0%	-0.7	-8.9	-0.3	-0.5	?	-1.8	-19.1
Cc1nn(-c2ccccc2)c(C)c1/C=N/N1CCN(c2ccccc2)CC1	11.8%	0.8	-1.8	?	7.0	41.5	2.7	.
CCN(C(=S)NC(=O)C1CCCC1)C1CCCCC1	16.2%	0.4	-4.8	-0.9	2.9	-10.6	-1.0	-16.9
COc1ccc(-c2nc(N)ncc2-c2ccccc2)c(O)c1	-33.1%	0.1	-24.5	1.0	-10.4	14.5	-2.2	14.3
COc1ccc(CCNC(=O)CNS(=O)(=O)c2ccc(F)c(Cl)c2)cc1OC	-1.2%	1.6	-1.8	2.8	-2.2	-7.1	1.3	10.3
O=C(Nc1ccc(Cl)c(-c2nc3ccccc3[nH]2)c1)c1ccc2c(c1)OCO2	.	0.9	2.2	0.1	.	-5.0	-0.9	26.5
c1ccc2c(c1)ccc1nnc(SCc3ccc4c(c3)OCCO4)n12	-13.1%	0.5	-6.1	-3.2	-1.7	5.6	-0.8	8.2
CC(=O)Nc1cccc(C(=O)OCN2C(=O)c3ccccc3C2=O)c1	.	0.0	-6.9	6.1	-2.5	-0.4	4.4	-7.8
CCC(=O)NC(c1cccc([N+](=O)[O-])c1)c1c(OC(C)=O)ccc2ccccc12 (stereo not given)	-7.2%	0.3	-2.9	2.4	.	-1.0	-2.0	-7.8
CCOC(=O)CNC(=O)N1CCCC(CCC(=O)NCc2ccc(F)c(F)c2)C1 (stereo not given)	10.3%	-0.2	-2.8	0.5	.	-19.1	2.0	-13.1
O=C(Nc1ccc(NC(=O)c2cccs2)cc1)c1ccco1	-8.0%	-6.7	-9.0	0.2	.	-7.4	0.5	7.7
Cc1nn(Cc2ccc(Cl)cc2)c(Cl)c1/C=N/NC(=O)c1cccnc1	-2.5%	0.0	0.2	0.2	-1.2	?	-3.0	-16.3
COc1ccc(CNC(=O)COC(=O)c2ccc(F)c(S(=O)(=O)N3CCOCC3)c2)cc1	-8.1%	-2.4	-2.5	.	-1.3	.	-1.7	.
CCOC(=O)CSc1n[nH]c(NS(=O)(=O)c2ccccc2C(F)(F)F)n1	-12.0%	-0.5	-2.4	-0.3	-15.4	-7.8	0.7	-17.5
Cc1ccc2oc(C(=O)Nc3ccc(S(=O)(=O)Nc4onc(C)c4C)cc3)c(C)c2c1	.	-0.7	2.7	1.3	1.4	-3.5	-1.3	-9.1
O=C(CC1C(=O)NCCN1Cc1ccccc1F)NC1CCCCCC1 (stereo not given)	-4.5%	0.2	.	0.3	-0.1	8.3	-1.8	1.8
CCOC(=O)N1CCN(C(=O)CN2C(=O)NC(c3ccccc3)(c3ccccc3)C2=O)CC1	.	-0.1	-2.3	1.6	-0.6	4.4	1.4	-3.1
Cc1c(-c2ccccc2)sc(N)c1C(=O)N1CCOCC1	0.7%	-0.1	-2.2	-2.9	.	-3.6	-0.9	2.1
O=C(O)c1ccc2c(c1)N(Cc1ccc(F)cc1)C(=O)c1ccccc1S2	-3.4%	0.6	-1.3	6.3	1.5	7.8	-4.0	-2.1
COC(=O)CN(n1cnnc1)S(=O)(=O)c1ccccc1	25.7%	0.7	7.9	2.6	.	-5.2	5.1	-6.4
N#C/C(=C\c1ccc(F)cc1)c1nc(-c2ccco2)cs1	.	-1.0	9.3	?	-3.1	4.3	3.4	-4.5
CCN(CC)S(=O)(=O)c1ccc2oc(C(=O)NC3CC3)c(C)c2c1	-5.4%	-0.4	-0.6	4.4	2.2	15.1	0.3	-0.9
Cn1nc(-c2ccc(OCC(N)=O)cc2)c2ccccc2c1=O	1.1%	-0.5	-5.0	0.4	.	5.3	-6.9	-17.4
COCCN(CCNC(=O)c1ccc(NC2=NC3CS(=O)(=O)CC3S2)cc1)Cc1ccco1 (stereo not given)	.	0.0	-1.3	7.7	2.0	2.4	1.5	-5.0
Fc1ccc(-c2ccc(Nc3cccc(F)c3)nn2)cc1	22.3%	-0.5	7.7	?	-1.5	-7.7	0.0	10.1
O=C(NC1CC1)c1cc(-c2ccc(Br)cc2)nc2ccccc12	5.5%	-0.2	3.0	.	1.2	.	4.7	.
CN(CC(=O)Nc1c(Cl)cccc1Cl)C(=O)c1ccc(-n2cncn2)c([N+](=O)[O-])c1	5.6%	-0.3	-3.1	0.3	-0.5	0.4	0.0	-0.3
CC(=O)Nc1sc2c(c1C#N)CCC2	13.4%	-0.4	-2.2	7.1	-3.1	36.1	3.7	-3.2
Cc1ccc(OCCN(C)C(=O)CC2C(=O)NCCN2CC(C)(C)C)cc1 (stereo not given)	10.0%	-0.3	.	4.7	3.7	-15.0	4.9	7.2
COC(=O)c1c(NC(NC(=O)C(C)(C)C)C(Cl)(Cl)Cl)sc2c1CCC2 (stereo not given)	0.7%	0.0	10.9	5.7	.	-7.7	0.2	39.2
New compounds follow:
SMILES	Vif TR-FRET	A1 inh	Beta cell apopt	RanGTP-Imp inh	AF4-AF9 inh	Calb FLC	LANA-H2A inh	T cruzi inh
c1ccc2nc(SCc3cn4ccccc4n3)cnc2c1	-20.6%	-1.4	-10.1	-3.7	0.0	-26.1	-1.7	-2.3
CCc1nc(C(N)=O)c2[nH]c(=O)n(-c3ccc(OC)cc3OC)c2n1	-3.1%	0.2	-4.9	4.0	.	0.7	1.1	-8.4
CC(C)CC(C(=O)OCC(=O)c1c(N)n(C)c(=O)n(C)c1=O)N1C(=O)C2CC=CCC2C1=O (stereo not given)	-3.8%	0.3	-4.4	-1.6	-2.6	9.6	-3.9	3.7
Cc1cc(OCC(O)CNC(C)c2ccccc2)ccc1C(C)C (stereo not given)	.	-0.1	-3.4	2.1	6.4	-3.5	-1.1	45.7
O=C(c1cc2cc(F)ccc2[nH]1)N1CCc2ccccc21	-10.1%	-10.2	-5.5	3.1	1.4	-4.9	-6.3	-2.8
CCOC(=O)c1ccc(N/C(=N\S(=O)(=O)c2ccc(F)cc2F)c2ccccc2)cc1	.	0.4	5.4	4.6	.	35.5	-6.7	-8.2
Cc1sc2ncnc(SCC(=O)N(C)C3CCS(=O)(=O)C3)c2c1C (stereo not given)	-61.5%	0.5	-4.7	11.2	-0.9	-0.7	4.0	-12.2

Compound activity deposited in PubChem by several laboratories.
